Screens as filed in PubChem BioAssay.
Kir21 inh: Kir2.1 (mouse) channel inhibition; P35561; HEK293-Kir2.1, FluxOR thallium flux fluorescence; active compounds read low; B-score at 10 µM; actives 0.85% (n = 310,000);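 active = fluorescence ratio B-score at or below minus 3 SD of library scores, with starting-brightness B-score within 2 SD, cut at about -4.2 in these data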;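 note: channel flux triggered by added potassium and thallium sulfate stimulus; B-score of peak minus minimum fluorescence over baseline after thallium stimulus; more negative B-score means stronger Kir2.1 block with less thallium influx; some compounds called inactive have numbers as strong as hits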
Target sequence (P35561 whole entry, looked up): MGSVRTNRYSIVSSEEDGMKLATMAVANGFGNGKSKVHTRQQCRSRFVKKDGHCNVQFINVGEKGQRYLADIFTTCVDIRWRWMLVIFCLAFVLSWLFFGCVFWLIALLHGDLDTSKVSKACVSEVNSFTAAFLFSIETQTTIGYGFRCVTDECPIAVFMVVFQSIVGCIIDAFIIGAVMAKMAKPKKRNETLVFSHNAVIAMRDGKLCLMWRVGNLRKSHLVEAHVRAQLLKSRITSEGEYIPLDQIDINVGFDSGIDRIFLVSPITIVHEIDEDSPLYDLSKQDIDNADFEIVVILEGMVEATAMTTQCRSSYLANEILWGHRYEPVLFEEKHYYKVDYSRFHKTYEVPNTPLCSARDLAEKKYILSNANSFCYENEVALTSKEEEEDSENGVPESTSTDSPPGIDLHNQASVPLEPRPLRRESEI
An asterisk follows results filed as active. Not all compounds are listed; most or all hits stand in other tables.

compound | Kir21 inh
O=C1/C(=C\c2ccccc2Cl)SC(=S)N1CCC(=O)N1CCCc2ccccc21 | 0.68
CCOc1ccc(CN(C)CCc2ccccn2)cc1 | -0.56
NCC(O)CN(c1ccccc1)c1ccccc1 (stereo not drawn) | -2.4
Cc1cc(C(=O)OCC(=O)N2CC(C)OC(C)C2)ccc1[N+](=O)[O-] (stereo not drawn) | 0.27
COc1ccccc1NS(=O)(=O)c1ccc(NC(=O)N2CCCCC2)cc1 | 1.6
Cc1ccccc1N(C(=O)CNC(=O)c1ccco1)C(C(=O)NC1CCCCC1)c1ccncc1 (stereo not drawn) | -0.02
Cn1c(SCc2ccccn2)nnc1-c1cnccn1 | -0.35
NC(=S)N/N=C/c1ccc(C(F)(F)F)cc1 | -2.1
Cc1ccccc1S(=O)(=O)Cc1ccc(C(=O)NCCN(Cc2ccccc2)C(C)C)o1 | 0.13
CC(=O)c1cc(CN2CCC(n3nccc3NC(=O)c3ccccc3Cl)CC2)cs1 | -0.98
O=C(CSc1ccsc1[N+](=O)[O-])NCCc1ccccc1 | -1.1
O=C(CN1C(=O)C2CCCCC2C1=O)Nc1cccc([N+](=O)[O-])c1 (stereo not drawn) | -0.06
O=C(NC(Cc1ccccc1)C(=O)O)/C(=C\c1ccco1)NC(=O)c1ccco1 (stereo not drawn) | -0.75
Cc1ccc(C)c(S(=O)(=O)N2CCCC2CNC(=O)C(=O)NCc2ccccc2C)c1 (stereo not drawn) | 0.67
COC(=O)c1sccc1NC(=O)Nc1ccc(F)cc1 | -2.2
Cc1cc(Br)ccc1NC(=O)CNC(=O)CN(C)Cc1nc2ccccc2c(=O)[nH]1 | 1.8
COc1ccc2[nH]c3c(c2c1)CCN1C(=O)N([C@@H](C)C(=O)NCc2c(F)cccc2Cl)C(=O)[C@]31C | -1.4
COCCn1c(=NC(=O)c2ccccc2[N+](=O)[O-])sc2cc(S(C)(=O)=O)ccc21 | -0.03
CC(C)CC(NC(=O)C1CCC(=O)N1)C(=O)NC(CC(C)C)C(=O)N1CCCC1C(N)=O (stereo not drawn) | 2.8
CC(=O)N/N=C(\C)C1COc2ccccc2O1 (stereo not drawn) | -0.23
O=C(NNc1nc2ccc(F)cc2s1)c1cccc(F)c1 | -0.04
CS/C(=N\S(=O)(=O)c1cccs1)Nc1ccc(N2CCOCC2)cc1 | 0.08
CC(c1ccco1)N(C(=O)c1ccc(Cl)s1)c1ccccn1 (stereo not drawn) | -2.5
CCOC(=O)N1CCN(C(=O)CS(=O)(=O)Cc2nc(-c3ccccc3C)oc2C)CC1 | -1.1
O=C(CCCn1c(=O)c2cccn2c2cccnc21)NCCc1ccc(Cl)cc1 | -0.68
O=C(COc1cccc2ccccc12)NNC(=O)[C@@H]1CCCC[C@@H]1C(=O)O | 0.76
CCOc1ccc(CN2CCC(n3nccc3NC(=O)C3CC3)CC2)cc1CO | 3.1
Cc1cc(C)c(S(=O)(=O)N2CCOC2CNC(=O)C(=O)NCc2ccccn2)c(C)c1 (stereo not drawn) | 0.36
N#Cc1ccccc1NC(=O)CNc1ccccc1N1CCCCC1 | -0.7
Cc1cc(Cl)c(S(=O)(=O)Nc2ccon2)cc1OCC(=O)NC1CCCCC1 | -1.3
Cc1ccc(C)c(NC(=O)CCc2nnc3ccc(N4CCCCC4)nn23)c1 | 1.1
N/C(=N\OC(=O)c1cccnc1)c1ccccc1Cl | -0.3
CCOC(=O)c1cnc2nc(N3CCOCC3)nn2c1N | 0.36
CCN1C(=O)[C@H]2[C@@H](c3ccc(Cl)cc3)N3C(=O)CN(CC4CC4)C(=O)[C@@]3(Cc3ccccc3)[C@H]2C1=O | -0.21
COC(=O)[C@@H](C)NC(=O)c1ccc2oc(CCc3ccccc3)nc2c1 | -0.55
c1ccc(N2CCN(CCc3nnc4n3CCCCC4)CC2)cc1 | 0.07
O=C(N=C1c2ccccc2CN1c1cccc(Cl)c1)c1cccnc1 | -0.26
CCN1C(=O)[C@H]2[C@@H](c3ccc(C)cc3)N3C(=O)N(c4ccc(OC)cc4)C(=O)[C@@]3(Cc3ccccc3)[C@H]2C1=O | -1.8
O=C(C1CC(=O)N(c2ccccc2)C1)N1CCN(C2=NS(=O)(=O)c3ccccc32)CC1 (stereo not drawn) | 0.85
CCc1n[nH]c(=S)n1/N=C/c1cc(Br)c(OC)cc1OC | 0.87
COCCNC(=O)C(c1ccccc1F)N(C(=O)C(=O)NC1CCCC1)C1CCCCC1 (stereo not drawn) | 1.5
COc1cc2c(cc1OC)C(c1ccc(O)cc1)NCC2 (stereo not drawn) | 1.2
Cc1cccc(N(CC(=O)NC(C)(C)C)C(=O)CNC(=O)c2cccs2)c1 | 0.59
C=C(C)c1nc(N)nc(N)n1 | 0
O=C(NCc1ccc(F)cc1)C(c1ccncc1)N(C(=O)c1csnn1)C1CC1 (stereo not drawn) | -0.06
COc1ccc(NC(=O)CS(=O)(=O)c2ccc(F)cc2)cc1 | -0.51
CN1/C(=C\C(=O)C(F)F)C(C)(C)c2ccccc21 | 0.64
Cc1c(NS(=O)(=O)c2ccc(NC3CCCC3)c([N+](=O)[O-])c2)c(=O)n(-c2ccccc2)n1C | 0.84
Cc1cc(C)nc(N2CCCC(C(=O)NC(C)C)C2)n1 (stereo not drawn) | 0.24
CC1=C(C(=O)OCC2CCCO2)C(c2ccsc2)C2=C(CC(C)(C)CC2=O)N1 (stereo not drawn) | -1.5

2 entries drawn at random from the list so far, as already listed:
compound | Kir21 inh
CC1=C(C(=O)OCC2CCCO2)C(c2ccsc2)C2=C(CC(C)(C)CC2=O)N1 (stereo not drawn) | -1.5
COc1ccc(NC(=O)CS(=O)(=O)c2ccc(F)cc2)cc1 | -0.51

Next entries follow.
compound | Kir21 inh
CC(=O)n1cc(/C=N/NC(=O)c2sc(C)nc2C)c2ccccc21 | 3.5
O=C(Oc1ccc(NC2=NS(=O)(=O)c3ccccc32)cc1)c1cccnc1 | -0.03
NC(=O)c1ccc(-n2nnnc2Oc2ccccc2)cc1 | -0.05
Cc1ccc(NC(=O)CNC(C)c2ccccc2)cc1 (stereo not drawn) | -0.05
COc1ccc(C(=O)N2CCN(S(=O)(=O)c3ccc(Cl)cc3)CC2)cc1OC | -0.62
COc1ccccc1Nc1nc(C)nc2c1oc1ccccc12 | -0.21
CCOC(=O)C1=C(C)Nc2nc(C)nn2C1c1ccc(OC)c(OC)c1 (stereo not drawn) | -1.6
Cc1ccc(-c2cc(C(F)F)n3ncc(C(=O)N4CCN5CCCC5C4)c3n2)cc1 (stereo not drawn) | -0.25
COc1ccccc1-n1c([S-])c(C(=O)Nc2ccccc2C(F)(F)F)[n+]2ccc(C(=O)NCCO)cc12 | 0
O=C1C2C(C(=O)N1/N=C/c1ccc([N+](=O)[O-])o1)C1C=CC2C12CC2 (stereo not drawn) | -0.36
Cc1ccc(-n2c(C)c(C)c3c(NCCN(C)C)ncnc32)cc1 | -2.1
CCOc1ccccc1NC(=O)Cn1c(C)cc(COC)c(C#N)c1=O | 0.54
CC(C)C(=O)N1CCN(c2ccc(NC(=O)c3ccco3)cc2Cl)CC1 | 0.01
CSc1ncccc1C(=O)Nc1cc(C)ccn1 | 1.2
COc1ccc(-n2c(COc3ccc(C)cc3)nnc2SCC(N)=O)cc1 | -1.5
CCN(CC)c1ccc(/C=N/NC(=O)CC(C)C)cc1 | -2.2
COc1ccc(NC(=O)CSc2nnc(-c3ccccc3)n2Cc2ccco2)cc1OC | -0.37
CCCCn1c(N)c(N(Cc2ccccc2OC)C(=O)CC2OC(=O)c3ccccc32)c(=O)[nH]c1=O (stereo not drawn) | -0.78
Cc1ccc(C(=O)Nc2ccccc2C(N)=O)o1 | 2.1
Cc1cc(NC(=O)CCCn2nc([N+](=O)[O-])cc2C)no1 | 1.3
O=C(NN=C1CCCC1)c1ccc([N+](=O)[O-])cc1 | 0.39
C=CCOc1ccc(C(=O)Nc2ccc3c(c2)n(C)c(=O)n3C)cc1 | 2.5
c1ccc(CNc2cncnc2)cc1 | 0.08
Cc1cccc(-n2c(C)cc(C=C(C#N)C#N)c2C)c1 | 1.8
CCSc1nnc(NC(=O)C2C3CCC(C3)C2C(=O)O)s1 (stereo not drawn) | -0.39
COc1cc(-n2c(N)c(C(=O)NCc3ccco3)c3nc4ccccc4nc32)cc(OC)c1OC | -0.71
COc1cccc(C2CC(c3cccc(NS(C)(=O)=O)c3)=NN2C(=O)c2ccccc2)c1OC (stereo not drawn) | 1.4
C/C(=N\NC(=O)c1ccncc1)c1cccnc1 | 0.09
Cc1n[nH]c(C)c1S(=O)(=O)N(CC(=O)NC1CCCC1)c1ccc(C(C)C)cc1 | 0.3
Cc1ccc2cc(C)c(SCC(=O)Nc3ccc(S(=O)(=O)N4CCCC4)cc3)nc2c1 | -1.2
COc1cccc(Cn2nc(C(=O)O)c3ccccc3c2=O)c1 | 2.1
CC(=O)Nc1ccn(Cc2c(F)cccc2Cl)n1 | -0.24
CCOC(=O)c1ccc(N2C(=O)CC(N3CCOCC3)C2=O)cc1 (stereo not drawn) | 0.98
CCn1nnc(NC(=O)c2cc(Cl)c(OC)c(Cl)c2)n1 | -2.5
Cc1sc2ncnc(Sc3nnnn3-c3ccccc3)c2c1C | -0.67
Cc1ccc(S(=O)(=O)CCSc2nc(C)cc(C)c2C#N)cc1 | -2.2
Cn1cc(CNCc2ccccc2OCC(O)CN2CCc3ccccc3C2)cn1 (stereo not drawn) | 0.26
CC(=O)c1ccc(NC(=O)c2ccc(S(=O)(=O)N3CCCC3)cc2)cc1 | 0.19
CCOc1ccc2nc(NC(=O)c3ccc(OCC4CCCO4)cc3)sc2c1 (stereo not drawn) | 2.7
Cc1ccccc1-n1ncc2c1CC(C)(C)CC2NC(=O)CSc1ccncc1 (stereo not drawn) | -0.51
Cc1cc(C)n(C(=O)COc2c(C)cccc2C)n1 | 0.68
O=C(NCc1nc2ccccc2[nH]1)c1ccc(S(=O)(=O)N2CCOCC2)cc1 | 0.48
CCOc1ccc(NC(=O)CN2C(=O)CCSc3ccc(S(=O)(=O)N4CCCC4)cc32)cc1 | -0.84
CCc1ccc(-c2csc(NC(=O)C3CC(=O)N(c4ccc5c(c4)OCCO5)C3)n2)cc1 (stereo not drawn) | -0.41
CN(C)S(=O)(=O)c1ccc(Cl)c(NC(=O)COC(=O)c2ccc3c(c2)NC(=O)CS3)c1 | -1.9
COc1cc2c(cc1OC)CN(CC(=O)Nc1ccc(S(=O)(=O)N3CCCC3)cc1)CC2 | -0.03
Cc1ccccc1OCC(=O)NC(Cc1c[nH]c2ccccc12)C(=O)O (stereo not drawn) | 0.55
CCN(CC)C(=S)Oc1c(Cl)cccc1Cl | -0.01
O=C(Cn1cc(C(=O)c2cccs2)c2ccccc21)NCC1CCCO1 (stereo not drawn) | -0.06
CCN(CC)CCNC(=O)Cc1c(C(=O)O)n(C)c2ccccc12 | -1.8

Next part:
compound | Kir21 inh
Cn1c(N)c(C(=O)COC(=O)c2ccc(Cl)c(S(=O)(=O)N3CCCCC3)c2)c(=O)n(C)c1=O | 0.44
COc1ccc(C(=O)COC(=O)/C=C/c2ccc(S(=O)(=O)Nc3cccc(S(N)(=O)=O)c3)cc2)cc1 | -0.27
CN(CCc1ccccn1)C(=O)Nc1cc(Cl)cc(Cl)c1 | 0.1
CCOC(=O)N1CCC(N2CCCC(C(=O)c3ccc4cc(OC)ccc4c3)C2)CC1 (stereo not drawn) | -1.6
COc1ccc(-c2noc(CN(C)Cc3ccc(C)o3)n2)cc1 | 0.26
Cc1ccccc1CS(=O)(=O)Cc1ccc(C(=O)NCc2ccco2)o1 | -0.53
N#Cc1c2n(c3c(-c4ccccc4)ncnc13)CCC2 | 1.2
COc1ccc(C2C(C(=O)N3CCN(c4ccccc4)CC3)c3ccccc3C(=O)N2C)cc1 (stereo not drawn) | -1.1
NS(=O)(=O)c1ccc(CCNC(=O)CCc2nc3sc4c(c3c(=O)[nH]2)CCCC4)cc1 | 0.02
CCC(=O)Nc1ccc(S(=O)(=O)N2CCOCC2)cc1 | -0.26
CCOC(=O)c1c(S(=O)(=O)N2CCN(C)CC2)c(C)n(C)c1C | 0.44
Cc1ccc(Nc2nc(Cl)c(C=O)s2)cc1 | -0.4
COc1ccc(-c2ccc(-c3nnc(-c4cc(OC)ccc4OC)o3)cc2)cc1 | 1.6
O=S(=O)(c1cccc(-c2nc3ccccc3s2)c1)N1CCOCC1 | 1.5
Cc1cccc(S(=O)(=O)CC(=O)Nc2nc(-c3ccccc3)cs2)c1 | -1.6
O=C(/C(=C(\[O-])c1ccccc1)[n+]1ccc2ccccc2c1)c1ccc(Cl)cc1 | -1.6
COC(=O)C1=C(C)NC2=C(C(=O)CC(C)(C)C2)C1c1cccc(C)n1 (stereo not drawn) | 0.11
O=C(NCc1ccccc1Cl)C1CCN(c2ncnc3c2nc2n3CCCCC2)CC1 | 1.1
C(=N\Nc1nncc2ccccc12)/c1ccccn1 | 0.03
CCOc1cccc(C2C(C#N)=C(N)Oc3cc(C)oc(=O)c32)c1OCC (stereo not drawn) | 0.92
Cc1nc2ccc(S(=O)(=O)NCC(=O)NCc3ccc(Cl)cc3)cc2s1 | -0.48

Given with values ahead of the structure: 7 of the compounds above.
| Kir21 inh | smiles |
| --- | --- |
| 0.44 | CCOC(=O)c1c(S(=O)(=O)N2CCN(C)CC2)c(C)n(C)c1C |
| 0.03 | C(=N\Nc1nncc2ccccc12)/c1ccccn1 |
| -1.6 | O=C(/C(=C(\[O-])c1ccccc1)[n+]1ccc2ccccc2c1)c1ccc(Cl)cc1 |
| 1.1 | O=C(NCc1ccccc1Cl)C1CCN(c2ncnc3c2nc2n3CCCCC2)CC1 |
| 1.5 | O=S(=O)(c1cccc(-c2nc3ccccc3s2)c1)N1CCOCC1 |
| -0.4 | Cc1ccc(Nc2nc(Cl)c(C=O)s2)cc1 |
| -0.48 | Cc1nc2ccc(S(=O)(=O)NCC(=O)NCc3ccc(Cl)cc3)cc2s1 |
